# TDP1 block – TDP1 (human) enzyme inhibition | recombinant TDP1, AlphaScreen DNA substrate cleavage | Potency, µM (doses to about 130 µM), for the others: at the top dose activity change, negative = inhibition, most hits filed as inhibitors | 0.28% of 350,000 active; also: nearly all actives have a fitted effect of over 40% in size
# Target sequence (Q9NUW8 whole entry, looked up): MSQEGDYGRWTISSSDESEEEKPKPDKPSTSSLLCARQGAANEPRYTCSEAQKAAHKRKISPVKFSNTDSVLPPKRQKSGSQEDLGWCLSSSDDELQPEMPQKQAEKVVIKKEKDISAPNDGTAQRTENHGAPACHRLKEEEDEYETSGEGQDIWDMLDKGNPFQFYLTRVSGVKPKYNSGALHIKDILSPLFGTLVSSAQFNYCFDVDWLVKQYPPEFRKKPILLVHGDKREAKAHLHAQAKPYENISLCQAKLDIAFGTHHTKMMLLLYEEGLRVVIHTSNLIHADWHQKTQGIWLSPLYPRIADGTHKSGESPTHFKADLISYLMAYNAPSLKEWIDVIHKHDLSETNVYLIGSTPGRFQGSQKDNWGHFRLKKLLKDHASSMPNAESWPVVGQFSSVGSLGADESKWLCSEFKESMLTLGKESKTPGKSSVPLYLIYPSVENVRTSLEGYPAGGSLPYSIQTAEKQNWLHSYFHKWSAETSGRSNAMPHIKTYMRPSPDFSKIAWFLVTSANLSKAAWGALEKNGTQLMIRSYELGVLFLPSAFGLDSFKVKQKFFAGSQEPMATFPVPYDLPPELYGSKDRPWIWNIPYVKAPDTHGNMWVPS
#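 Signal: AlphaScreen proximity between streptavidin donor and anti-FITC acceptor beads on intact substrate. Reaction: Tdp1 1 nM, substrate 15 nM final, 5 min RT after 15 min compound preincubation.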
# TDP1 cell noCPT – qHTS for Inhibitors of human tyrosyl-DNA phosphodiesterase 1 (TDP1): qHTS in cells in absence of CPT; DT40 Tdp1-/- hTDP1 cells, no CPT, ATP luminescence, 48 h; Potency, µM (top dose mostly 46.2 µM), for inactives: at the top dose activity change, negative = growth inhibition, most hits filed as inhibitors; 15% of 420,000 active; also: nearly all actives have a fitted effect of over 55% in size
#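 Luminescent ATP content (CellTiter-Glo) served as the growth readout. Knockout chicken DT40 cells expressing human TDP1 were exposed to compounds without camptothecin for a minimum 48 hr at 37 °C.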
# Starred values were filed as active, the others as inactive; ? = inconclusive; . = no result given; [ ] = dose if it differs, or a comment. Calls follow the shape of the dose curve; as a rule, active = well fitted curve in the direction sought with a large enough effect; inconclusive = small, poorly fitted or top-dose-only effect, or another doubt; inactive = no such curve, though single readings can be large; an effect the other way counts as inactive or inconclusive. % is scaled to controls: 0 for no effect and ±100 for the full control effect; potency is read from the fitted curve at half-maximal effect.
structure,TDP1 block,TDP1 cell noCPT
CC(C)c1ccc(NC(=O)C2CCC(CNC(=O)[C@@H]3Cc4ccccc4CN3)CC2)cc1 (stereo not given in full),4%,?
CCOC(=O)C(C(=O)OCC)C(CC(=O)C1CC1)c1ccccc1 (stereo not given),0%,-21%
Fc1ccc(-c2nnc(CSc3nnc(-c4ccc5c(c4)OCO5)o3)o2)cc1,2%,1%
COc1ccc(OC)c(CCNC(=O)Cn2ccc3cc(S(=O)(=O)N4CCCC4)ccc32)c1,3%,?
Nc1nc(CN2CCN(Cc3ccccc3)CC2)nc(N2CCCc3ccccc32)n1,2%,3%
C/C(=N\NC(=O)c1c(Cl)cnn1C)c1cccc(NC(=O)C(C)C)c1,3%,?
COc1ccc(C(=O)C2CCCN(C(=O)c3ccnn3C)C2)c(C)c1 (stereo not given),1%,-26%
COc1ccccc1NC(=O)CN(Cc1ccco1)C(=O)c1cc2ccccc2o1,7%,.
CCc1nccn1CCC(=O)N1CCc2c([nH]c3ccccc23)C1CC(C)C (stereo not given),.,-4%
COC(=O)C1=C(C)NC(C)=C(C(=O)OC)C1C(=O)OCc1nnc(-c2ccccc2)o1,0%,-9%
COc1ccc(NC(=O)COC(=O)C2CCC(C(C)(C)C)CC2)c([N+](=O)[O-])c1 (stereo not given),5%,?
O=C(/C=C/c1ccco1)N1CCN(S(=O)(=O)c2ccc(F)c(F)c2F)CC1,2%,-4%
COc1cc(/C=C/C(=O)OCC(=O)NCCc2ccccc2)ccc1OC(F)F,-1%,2%
COC(=O)NNC(=O)Cc1cccc2ccccc12,0%,2%
O=C1C2C3C=CC(C3)C2C(=O)N1c1ccc2ccccc2c1 (stereo not given),.,3%
COC(=O)c1ccc(NC(=S)NN2CCOCC2)cc1,5%,14%
COc1ccc(N(CC(=O)NCc2cccs2)S(=O)(=O)c2c(C)n[nH]c2C)cc1,5%,-6%
COc1ccc(CCNC(=O)C2CCN(S(=O)(=O)c3ccc(OC)c(OC)c3)CC2)cc1OC,.,-2%
CC(C)C(c1nnnn1C1CCCCC1)N1CCN(c2ncccn2)CC1 (stereo not given),6%,?
CCCN(CCC)S(=O)(=O)c1ccc(C(=O)Nc2c(C)n(C)n(-c3ccccc3)c2=O)cc1,1%,-4%
CC(=O)c1sc(-c2ccc(Cl)cc2)cc1N,-6%,?
CCOC(=O)Cc1csc(NC(=O)Cc2ccccc2[N+](=O)[O-])n1,8%,?
COc1cccc(-n2nnnc2SCC(=O)NCCc2ccccc2)c1,6%,-9%
O=C(CCc1nnc(C2CCCCC2)o1)N1CCCCC1CCn1cccn1 (stereo not given),5%,?
S=C(NCc1ccccn1)Nc1cccc(Cl)c1,1%,?
O=C(Nc1cccnc1Cl)c1cc(-c2cccc(O)c2)on1,4%,0%
CCOC(=O)N1CCN(C(=O)COc2ccc(S(=O)(=O)NC(C)C)cc2)CC1,-3%,-9%
O=C(C1CCCO1)N1CCN(C(c2ccccc2)c2ccccc2)CC1 (stereo not given),1%,-21%
COc1ccc(CNC(=O)C(C)N2CCN(S(=O)(=O)c3ccccc3F)CC2)cc1 (stereo not given),1%[56.1 µM],-9%
COc1ccc(Nc2ncccc2C(=O)O)cc1,-11%,-6%
COc1ccc(C2/C(=C(\O)c3cccc(OC)c3)C(=O)C(=O)N2c2ccccn2)cc1 (stereo not given),3%,-7%
O=S(=O)(Cc1ccccc1Cl)NCCc1ccccc1,5%,-2%
CC(=O)c1cccc(CN2CCN(Cc3ccc(C)cc3)C(CCO)C2)c1 (stereo not given),0%,-17%
CC(=O)c1cccc(NC(=S)N2CCN(CCN3C(=O)c4cccc5cccc(c45)C3=O)CC2)c1,3%,?
Cc1nc2ccc(S(=O)(=O)NC(C(=O)Nc3nccs3)C(C)C)cc2s1 (stereo not given),1%,3%
Cc1cc(=O)oc2cc(OC(C)C(=O)Nc3ccc(N4CCCCC4)cc3)ccc12 (stereo not given),4%,-11%
CCOc1cc(S(=O)(=O)NC2CCCCC2)ccc1F,6%,-29%
O=C(CSCc1c(Cl)cccc1Cl)NCc1ccccn1,6%,-2%
COc1ccc(N2C(=O)C(OC(C)=O)C2c2ccc(C)cc2)cc1 (stereo not given),8%,?
O=C(Cn1c(=O)n(-c2ccccc2)c(=O)c2sccc21)N1CCCC1,1%,-6%

# Exported with two lines to a compound: 2 of the compounds above.
# Value order – TDP1 block, TDP1 cell noCPT
> Cc1cc(=O)oc2cc(OC(C)C(=O)Nc3ccc(N4CCCCC4)cc3)ccc12 (stereo not given)
→ 4%, -11%
> COc1ccc(N2C(=O)C(OC(C)=O)C2c2ccc(C)cc2)cc1 (stereo not given)
→ 8%, ?

# More structures
structure,TDP1 block,TDP1 cell noCPT
CC1CC1C(=O)OCC(=O)NC(=O)NC12CC3CC(CC(C3)C1)C2 (stereo not given),0%,?
Cc1c(Cl)cccc1NC(=O)CNC(=O)c1ccc2c(c1)OCCO2,-1%,-20%
CC1CCN(CCc2nc3cc(NC(=O)COc4ccccc4)ccc3n2C)CC1,2%,7%
COc1ccc(N(CC(=O)NC2CCCCC2)C(=O)c2ccc(C)s2)cc1OC,3%,-10%
Cn1c(=O)oc2cc(S(=O)(=O)NCCC(=O)NCCc3ccccc3)ccc21,-3%,-16%
CN(C)/C=C(/C(=O)c1ccc(Cl)cc1Cl)S(=O)(=O)c1ccc(Cl)cc1,0%,17%
COC(=O)c1cccc(Oc2nc3c(c(=O)n(C)c(=O)n3C)n2C(C)C)c1,5%,?
Nn1c(CSc2nc3ccccc3o2)nnc1CSc1nc2ccccc2o1,4%,-9%
O=C(c1ccc(Cl)cc1)c1cc(-c2ccccn2)c(N2CCOCC2)s1,-12%,?
CCC1C(=O)N=C(SCC(=O)NC2CCCCC2)NC1=O (stereo not given),-7%,-9%
COCCN1C(=O)c2ccc(C(=O)Nc3nccs3)cc2C1=O,7%,1%
CCCCN1CC(=O)N2[C@H]3c4ccccc4OC[C@@H]3[C@H](C(=O)OCC)[C@]2(C)C1=O,2%,12%
CCN(CC)S(=O)(=O)c1cccc(NC(=O)CN2C(=O)c3ccc([N+](=O)[O-])cc3C2=O)c1,5%,12%
COc1ccc(OC)c(NC(=O)COC(=O)/C=C/c2c(C)nn(C3CCS(=O)(=O)C3)c2Cl)c1 (stereo not given),7%,?
COc1cccc(CC(=O)Nc2cc(S(=O)(=O)N3CCCCC3)ccc2C)c1,1%,?
O=C(CCn1cnnn1)Nc1ccc(Cl)cc1Cl,-8%,0%
CCC(C(=O)Nc1ccccc1)c1ccccc1 (stereo not given),5%,-7%
CCN1C(=O)C(CC(=O)Nc2ccccc2)S/C1=N\c1ccccn1 (stereo not given),5%,6%
CC1(C)CC2CC(C)(CN2CC(O)COc2ccccc2)C1 (stereo not given),-15%,5%
CCN(CC)c1nc(N2CCOCC2)c(C#N)c2c1CN(C)CC2,6%,-3%
O=C(CSc1nnc(-c2ccco2)n1-c1ccccc1)N1CCOCC1,-2%,-5%
O=C(COc1ccc(S(=O)(=O)Nc2ccccc2)cc1)NCc1ccccn1,4%,-4%
O=C(NC1CCCCC1)C1CCN(c2ncccn2)CC1,1%,2%
c1ccc(CNc2nc(-c3cccnc3)cs2)cc1,0%,-16%
O=C(NCCc1ccccc1)C(=O)NCC1OCCN1S(=O)(=O)c1cccs1 (stereo not given),4%,-12%
O=C(Oc1ccc2c(-c3ccccc3)cc(=O)oc2c1)c1cccs1,-1%,-27%
COc1ccc(S(=O)(=O)N2CCCCCC2)cc1C(=O)N(C)Cc1cccc(OC)c1OC,-7%,?
NC(=O)C1(N2CCCCC2)CCN(S(=O)(=O)c2cc(Cl)sc2Cl)CC1,3%,-18%
Cc1c(Cl)cnc(NC(=O)CSc2n[nH]c(N)n2)c1Cl,-1%,-16%
C/C(=N/NC(=O)C(C)n1nc(C)c([N+](=O)[O-])c1C)c1ccc(OCC(N)=O)cc1 (stereo not given),6%,?
CC(C)(C)c1ccc(OCC(=O)N/N=C/c2ccsc2)cc1,3%,?
CCOc1ccc(S(=O)(=O)Nc2ccc(Cl)cn2)c(C)c1C,6%,-22%
CCOC(=O)CCCNC(=O)COC(=O)c1ccc(O)cc1,6%,-11%
CCC(=O)Nc1nc(CC(=O)Nc2ccccc2OC)cs1,-6%[56.1 µM],-22%
CCOc1ccc(NC(=O)CSc2nc(=O)n(Cc3ccccn3)c3c2CCC3)cc1,3%,-10%
CC[C@]12c3[nH]c4ccc(OC)cc4c3CCN1C(=O)C(CC(=O)NC(C)(C)C)C[C@@H]2C(=O)N1CCN(C(=O)c2ccco2)CC1 (stereo not given in full),2%[56.1 µM],-13%
Cc1ccc(-c2csc3nc4cc(C(=O)NC5CCC(O)CC5)ccc4c(=O)n23)cc1 (stereo not given),-8%,-26%
CCC(CC)c1nnc(NC(=O)c2nn(C)c(=O)c3ccccc23)s1,4%,.
CCOC(=O)CCc1c(C)c2ccc(OCc3ccc([N+](=O)[O-])cc3)cc2oc1=O,0%,-13%
Cc1ccc(NC(=O)c2cccc(C(=O)Nc3ccc(C)cc3C(=O)O)c2)c(C(=O)O)c1,.,-6%
COC(=O)Cc1ccc(NC(=S)N2CCN(C)CC2)cc1,-3%,?
COc1ccc(S(=O)(=O)Nc2cccc(S(=O)(=O)N3CCCC3)c2)cc1OC,0%,-7%
CC(NC(=O)C1(C)CC1(Br)Br)C(C)(C)C (stereo not given),1%,-11%
CCOc1cnc(-c2ccc(Cl)cc2)o1,4%,?
COc1ccc(NC(=S)NC(=O)c2cc3ccccc3o2)c(OC)c1,4%,-6%
CCOc1ccc(OCCC(=O)NNC(=O)c2cc(OC)c(OC)c(OC)c2)cc1,-19%,0%
CCc1c(C)[nH]c(=S)c(C#N)c1C,6%,-9%
Cc1cc(C)n2nc(C(=O)OCC(=O)Nc3cc(Cl)ccc3C)nc2n1,2%,-16%
CCSc1nc(O)cc(=O)n1CC,-11%,13%
Cc1ccc(C2=NN(CC(=O)NCc3ccco3)C(=O)CC2)cc1,1%,-14%

# Single records, from the list above. Order of screens: TDP1 block | TDP1 cell noCPT
# CCOc1cnc(-c2ccc(Cl)cc2)o1 as listed: 4% | ?
# Cc1cc(C)n2nc(C(=O)OCC(=O)Nc3cc(Cl)ccc3C)nc2n1 as listed: 2% | -16%
# COc1ccc(NC(=S)NC(=O)c2cc3ccccc3o2)c(OC)c1 as listed: 4% | -6%

# Further entries:
structure,TDP1 block,TDP1 cell noCPT
O=C(CN(CC1CCCO1)C(=O)CCC(=O)Nc1nccs1)NCc1ccccc1 (stereo not given),5%,-9%
Cc1cc(O)c(-c2ccno2)cc1Cl,3%,?
CC(Oc1cccc(Br)c1)C(=O)Nc1cccc(S(=O)(=O)N2CCOCC2)c1 (stereo not given),1%,?
O=S(=O)(Nc1ccc(-c2ccc(N3CCOCC3)nn2)cc1)c1ccc(Cl)c(Cl)c1,0%,?
O=C(NCc1cccs1)C(NS(=O)(=O)c1cccc2nsnc12)c1ccccc1 (stereo not given),0%,-10%
O=C(Nc1cc(=O)[nH]c2ncnn12)c1ccco1,.,-23%
Cc1ccc(OCc2nnc(SCC(=O)NC3CCCCC3)n2C)cc1,5%,-21%
COc1cc(OC)c(OC)cc1NC(=O)CC1COc2ccccc2O1 (stereo not given),5%,-4%
COc1ccc(C(=O)Nc2ccc(S(=O)(=O)NC(C)=O)cc2)cc1,5%,5%
CCCCOC(=O)C1[C@H]2C(=O)N(c3ccccc3CC)C[C@]23C=C[C@H]1O3 (stereo not given in full),6%,-4%
CCS(=O)(=O)N1CCC(n2c(C)nc3cccnc32)CC1,3%,0%
O=C(c1cc(-c2ccncc2)nc2ccccc12)N1CCN(c2ccc(N3CCOCC3)nn2)CC1,4%,-12%
c1ccc(NC2=NCCN2CC2CCCCC2)cc1,-4%,-3%
N#C/C(=C\c1ccccc1)C(=O)NC(=O)Oc1ccccc1,2%,-17%
CC(=O)c1cccc(NC(=O)c2ccc(S(=O)(=O)N3CC(C)OC(C)C3)cc2)c1 (stereo not given),1%,-1%
CC(CNC(=O)c1ccc2c(c1)OCO2)c1ccc([N+](=O)[O-])cc1 (stereo not given),-4%,?
O=c1c2ccccc2c2ccccc2c(=O)n1CC1CCCO1 (stereo not given),3%,3%
O=C(c1cc2ccccc2[nH]1)N1CCOCC1,0%,2%
CCOC(=O)c1nc(C)sc1-c1ccnn1S(=O)(=O)c1ccc(Cl)cc1Cl,0%,-13%
CC(=O)NS(=O)(=O)c1ccc(NC(=O)c2ccc3c(c2)NC(=O)CS3)cc1,-3%,-6%
Cc1[nH]c(=O)[nH]c(=O)c1S(=O)(=O)N1CCOCC1,2%,-2%
CS(=O)(=O)N(CC(=O)NC1CCCCCC1)Cc1ccc(Cl)cc1,0%,?
CCOc1ccc(C(=O)NNC(=O)CNC(=O)c2ccc(C)s2)cc1OC,0%,1%
CCOC(=O)c1cc(-c2ccc(F)cc2)n(CC(=O)NCc2ccccn2)c1C,2%,-1%

# Only part of the results is shown; most or all hits stand in other tables.
